Mtb growth – Mycobacterium tuberculosis H37Rv growth inhibition, putative kinase inhibitor library, confirmatory dose response (AID 2842); M. tuberculosis H37Rv growth inhibition; higher % means a stronger effect; some inactives read as strong as hits; inhibition, % at 10 µg/mL, or IC90 in µg/mL where a hit was titrated; 24,000 tested, 5.2% active;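 active = confirmed in a dose series; about a fifth of its hits are not listed in these tables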;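 note: bacteria incubated one week before Alamar blue readout; 0% = bacteria only wells and 100% = bacteria with high antibiotic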
* hit, by the source's call. The list is partial; rates above refer to the full screens.

SMILES	Mtb growth
COc1ccc2nc(NNC(=O)c3cc4ccccc4oc3=O)sc2c1	30.8µg/mL*
Clc1ccc(Nc2ccc(NCc3ccccc3)nn2)cc1	5.5µg/mL*
CCN(CC)c1ccc(C(=O)Nc2sc3c(c2C#N)CCCC3)cc1	-6.5%
COc1ccc(NC(=O)CC2Sc3ccc(C(F)(F)F)cc3NC2=O)cc1 (stereo unspecified)	0.5%
COC(=O)c1ccc(NC(=O)CSc2nc3[nH]ncc3c(=O)[nH]2)cc1	3.1%
Cc1ccc(C)c(Nc2ncnc(N)c2[N+](=O)[O-])c1	0.9%
COc1ccc(-n2nc3c(c2NC(=O)c2cccc(C(F)(F)F)c2)CS(=O)C3)cc1 (stereo unspecified)	15.9%
CC(Oc1ccccc1)C(=O)N1CCN(c2ccc(N3CCOCC3)nn2)CC1 (stereo unspecified)	-12.4%
CCc1ccc(-c2nc(C(N)=O)c3[nH]c(=O)n(-c4cccc(OC)c4)c3n2)cc1	13.0%
CC1Cc2ccccc2N1C(=O)CCn1c(=O)oc2ccccc21 (stereo unspecified)	0.3%
O=C(Cn1nnc2ccccc21)Nc1ccc(Cl)cc1	-10.2%
C=CCn1c(SCCC(=O)Nc2ccc3c(c2)OCO3)nc2sc3c(c2c1=O)CCCC3	-3.0%
Cc1cccc(Cn2cc(S(=O)(=O)c3ccccc3)c(=O)c3cc(F)ccc32)c1	8.3%
NC(=O)CCC(Nc1ncnc2ccccc12)C(=O)O (stereo unspecified)	4.3%
CCOC(=O)c1nn(-c2ccc(C(F)(F)F)cc2)c(=O)c2c(NC(=O)Cc3ccc(Cl)cc3)scc12	4.8%
CN(C)S(=O)(=O)c1ccc(C(=O)Nc2ccc(F)cc2F)cc1	5.7%
CC(C)NC(=O)c1cc2ccc(O)cc2oc1=O	1.9%
CCCCn1c(SCCC(C)C)nc2c1c(=O)[nH]c(=O)n2C	36.3%
Cc1cc(NC(=O)CSc2ccc3nnc(-c4ccncc4)n3n2)no1	0.8%
COC(=O)c1ccc(NC(=O)CSc2nnc3[nH]c(=O)ccn23)cc1	55.0%
COCCn1c(SCc2c(F)cccc2Cl)nc2c1c(=O)[nH]c(=O)n2C	-6.0%
CN1CCN(S(=O)(=O)c2ccc(NC(=O)c3ccc(S(=O)(=O)N4CCCC4)cc3)cc2)CC1	10.7%
Cc1ccc(C)c(-c2nnc(NC(=O)C(C)(C)C)o2)c1	1.32µg/mL*
COc1cc2c(=O)c(C(=O)c3ccc(Cl)cc3)cn(Cc3ccccc3)c2cc1OC	0.9%
CCC(=O)Nc1c(C(=O)Nc2ccc(OC)cc2OC)oc2ccccc12	7.1%

Filtered by structure: the compounds so far containing an aryl methoxy group
SMILES	Mtb growth
COc1ccc2nc(NNC(=O)c3cc4ccccc4oc3=O)sc2c1	30.8µg/mL*
COc1ccc(NC(=O)CC2Sc3ccc(C(F)(F)F)cc3NC2=O)cc1 (stereo unspecified)	0.5%
COc1ccc(-n2nc3c(c2NC(=O)c2cccc(C(F)(F)F)c2)CS(=O)C3)cc1 (stereo unspecified)	15.9%
CCc1ccc(-c2nc(C(N)=O)c3[nH]c(=O)n(-c4cccc(OC)c4)c3n2)cc1	13.0%
COc1cc2c(=O)c(C(=O)c3ccc(Cl)cc3)cn(Cc3ccccc3)c2cc1OC	0.9%
CCC(=O)Nc1c(C(=O)Nc2ccc(OC)cc2OC)oc2ccccc12	7.1%

(continued)
SMILES	Mtb growth
O=C(CCCc1ccccc1)Nc1cccc(-c2ccc3nncn3n2)c1	6.4%
Cc1cc(C)cc(NC(=O)Cn2c(=O)n(Cc3ccc4c(c3)OCO4)c(=O)c3oc4ccccc4c32)c1	-3.2%
Cc1ccc(Cc2cnc(NC(=O)c3cc4ccccc4c(=O)o3)s2)cc1	0.5%
O=c1[nH]c2ccccc2n1CCCSc1cccc2cccnc12	0.3%
Cc1ccc(-c2nnc(NC(=O)/C=C/c3cccc([N+](=O)[O-])c3)o2)c(C)c1	68.2%
COc1ccc(/C=C/C(=O)Nc2sc3c(c2C#N)CCC(C)C3)cc1Br (stereo unspecified)	-2.6%
O=C(Cc1cccs1)Nc1c(C(=O)Nc2ccc(F)c(F)c2)oc2ccccc12	-2.9%
COc1cccc(NC(=O)CSc2ccc3nnc(-c4ccc(Cl)cc4)n3n2)c1	-7.1%
Cc1ccc(CNC(=O)CSc2nc(N)c(NC(=O)c3ccc(C)cc3)c(=O)[nH]2)cc1	0.1%
Cc1cccn2c(=O)c3cc(C(=O)NCc4ccco4)c(=N)n(C4CCCC4)c3nc12	11.3%
Cn1cc(C(=O)Nc2ccc(F)c(Cl)c2)c2nn(-c3ccccc3)c(=O)c-2c1	-6.0%
CC1CCc2nc(NC(=O)C3CC3)sc2C1 (stereo unspecified)	53.0%
O=C(NCCc1c[nH]c2ccccc12)c1cnc2sccn2c1=O	6.6%
Cc1csc(NC(=O)CSc2nnc3ccc(-c4ccccc4)nn23)n1	-3.2%
O=C(CSc1ccc2nnc(-c3ccc(Cl)cc3)n2n1)NCC1CCCO1 (stereo unspecified)	-5.3%
COc1ccc(N2CCN(c3nc4c(c(=O)n(C)c(=O)n4C)n3Cc3ccccc3Cl)CC2)cc1	0.0%
CCOc1ccc(-c2nnc3ccc(SC(C(C)=O)C(C)=O)nn23)cc1	0.3%
CCOC(=O)Cn1c(=O)c2c(nc3n(-c4cc(C)ccc4C)c(C)cn23)n(C)c1=O	-5.3%
COc1ccc(-n2c(SCC(N)=O)nc3sc4c(c3c2=O)CCCC4)cc1	-3.8%
Cn1c(Cn2c(=O)sc3ccccc32)nnc1SC/C=C/c1ccccc1	-4.9%
CCCc1cc(=O)[nH]c2nnc(SCC(=O)Nc3ccccc3F)n12	-9.2%
CCn1c(SCC(=O)Nc2ccc([N+](=O)[O-])cc2)nnc1-c1c[nH]c2ccccc12	-4.5%
CCN(CC)C(=O)Cn1cnc2sc(C(N)=O)c(C)c2c1=O	5.1%
COc1ccc(Cl)cc1C(=O)NCCc1cc2c(C)ccc(C)c2[nH]c1=O	4.1%
Cn1c(=O)c2c(SCC(=O)Nc3cccc(F)c3)nc(-c3cccs3)nc2n(C)c1=O	10.0%

Looked up by compound from above (2):
SMILES	Mtb growth
COc1ccc(Cl)cc1C(=O)NCCc1cc2c(C)ccc(C)c2[nH]c1=O	4.1%
Cc1ccc(CNC(=O)CSc2nc(N)c(NC(=O)c3ccc(C)cc3)c(=O)[nH]2)cc1	0.1%

Back to the main list, repeating the two entries before the break.
SMILES	Mtb growth
COc1ccc(Cl)cc1C(=O)NCCc1cc2c(C)ccc(C)c2[nH]c1=O	4.1%
Cn1c(=O)c2c(SCC(=O)Nc3cccc(F)c3)nc(-c3cccs3)nc2n(C)c1=O	10.0%
COc1cc2c3nnc(-c4ccc(C)cc4)c-3cn(Cc3ccc(C)cc3)c2cc1OC	18.6%
CCOC(=O)c1nn(-c2ccc(C(F)(F)F)cc2)c(=O)c2c(NC(=O)CC(C)C)scc12	3.8%
Cc1nnc(SCC(=O)Nc2cccc(F)c2)n(N)c1=O	-12.4%
O=C(CSc1ccccc1)Nc1cccc2c1C(=O)NC2=O	-20.3%
C=CCn1c(Cc2csc(N)n2)nnc1SCC(=O)NCCc1ccc(OC)c(OC)c1	-6.8%
Cc1ccc(-n2c(SCC(=O)Nc3nccs3)nc3c([nH]c4ccccc43)c2=O)cc1	1.7%
C#CCn1c(=NC(=O)c2ccc3ccccc3c2)sc2cc(NC(C)=O)ccc21	8.8%
O=C(CSc1ccc2nnc(-c3cccnc3)n2n1)NCc1ccc(F)cc1	1.2%
O=C(NCc1ccccn1)C(=O)Nc1cc2c3c(c1)CCC(=O)N3CCC2	-3.3%
CN(c1ccccc1)S(=O)(=O)c1ccc(C(=O)Nc2nc3c(ccc4ccccc43)s2)cc1	4.2%
CCOc1ccc2nc(Nc3nc4c(OC)cccc4s3)sc2c1	3.75µg/mL*
CN(C)c1ccc(C2/C(=C(\O)c3ccc(F)cc3)C(=O)C(=O)N2CCO)cc1 (stereo unspecified)	-34.5%
Cc1ccc(C)c(-c2nnc(NC(=O)Cc3ccc(S(C)(=O)=O)cc3)o2)c1	-3.9%
CCOc1ccc(Nc2nc(N3CCN(c4ccc(F)cc4)CC3)nc3c2cnn3-c2ccccc2)cc1	-2.0%
N#CC1=C(SCC(N)=O)NC(=O)CC1c1cccc(Oc2ccccc2)c1 (stereo unspecified)	-19.0%
COc1ccc(-c2nc(N3CCC(C)CC3)nc3n[nH]c(N)c23)cc1	2.14µg/mL*
CC1CCN(c2nc3c(c(=O)[nH]c(=O)n3C)n2Cc2ccccc2)CC1	1.9%
CCOc1ccc(C(=O)Oc2coc(CSc3nccc(C)n3)cc2=O)cc1OCC	-6.0%
CCOC(=O)c1nn(-c2ccc(F)cc2)c(=O)c2c(NC(=O)c3cccc(OC)c3OC)scc12	-3.3%
CC(C)N1CCc2c(sc(NC(=O)COc3ccc(Cl)cc3Cl)c2C(N)=O)C1	-0.6%
CCN(CC)CCNC(=O)c1cc2cc([N+](=O)[O-])ccc2oc1=O	-2.4%
CNC(=O)CSc1nc2[nH]ncc2c(=O)[nH]1	-0.4%
Fc1ccc(Cn2cc3c(-c4ccccc4)nnc-3c3cc4c(cc32)OCO4)cc1	13.7%
COC(=O)c1c(NC(=O)c2cccc(Cl)c2)sc2c1CCC2	8.5%
CCCCC(=O)Nc1c(C(=O)Nc2ccccc2OC)oc2ccccc12	3.5%

A draw from above in order of length of the SMILES, lowest first:
SMILES	Mtb growth
O=C(CSc1ccccc1)Nc1cccc2c1C(=O)NC2=O	-20.3%
COc1ccc(NC(=O)CC2Sc3ccc(C(F)(F)F)cc3NC2=O)cc1 (stereo unspecified)	0.5%
C#CCn1c(=NC(=O)c2ccc3ccccc3c2)sc2cc(NC(C)=O)ccc21	8.8%
Fc1ccc(Cn2cc3c(-c4ccccc4)nnc-3c3cc4c(cc32)OCO4)cc1	13.7%

(more compounds)
SMILES	Mtb growth
O=C(O)c1c[nH]c2c(C(F)(F)F)cccc2c1=O	29.0%
Cc1ccc(-c2nc3c(c(SCC(=O)Nc4c(C)cccc4C)n2)Cc2ccccc2O3)cc1	5.9%
O=C(Nc1nc2c(s1)CCCC2)c1ccc(Cc2ccccc2)cc1	7.01µg/mL*
O=C(c1ccco1)N1CCN=C1SCc1ccccc1Cl	-4.5%
CN(C1CCCCC1)S(=O)(=O)c1ccc(C(=O)Nc2nc3c(cc4c5c(cccc53)CC4)s2)cc1	1.4%
NC(=O)c1ccsc1NC(=O)C1COc2ccccc2O1 (stereo unspecified)	4.0%
COc1ccc2c(c1)O/C(=C\c1ccc(OC(=O)N(C)C)c(OC)c1)C2=O	3.9%
CC1CCc2nc(Nc3nc4ccc(F)cc4s3)sc2C1 (stereo unspecified)	7.3%
CCOC(=O)c1nn(-c2ccccc2)c(=O)c2c(NC(=O)Cc3cccc(C)c3)scc12	-8.3%
COc1ccc(C(=O)Nc2nc(CC(=O)NCc3ccncc3)cs2)cc1	-4.5%
Cc1ccc(-n2c(=O)[nH]c3c(C(N)=O)nc(-c4cccc(F)c4)nc32)cc1C	-25.2%
COc1ccc(NC(=O)Cn2cnc3c(cnn3-c3ccccc3)c2=O)cc1OC	7.8%
O=C(Nc1nnc(-c2ccc(Cl)cc2)s1)c1ccccc1	7.8%
Cc1cc(NC(=O)CSc2ncnc3c2oc2ccccc23)no1	3.7%
CCOc1cccc2c1Oc1nc(-c3cccc(OC)c3)[nH]c(=O)c1C2	-18.8%
Cc1ccc(C)c2[nH]c(=O)c(CCNC(=O)c3ccc(C(F)(F)F)cc3)cc12	16.6%
Cc1ccc2nc(NC(=O)CSc3ccc4nnc(-c5ccc(F)cc5)n4n3)sc2c1	-1.8%
O=C(NCCc1c[nH]c2ccccc12)C(=O)Nc1ccncc1	4.8%
Cc1sc2ncn(CC(=O)c3ccccc3)c(=O)c2c1-c1ccc(F)cc1	-4.8%
O=C(CC1Sc2ccccc2NC1=O)Nc1ccc(C(F)(F)F)cc1 (stereo unspecified)	-0.3%
COc1ccc(-n2c(=O)[nH]cc(C(=O)Nc3ccc(F)c([N+](=O)[O-])c3)c2=O)cc1OC	-2.3%
Cc1nc2ccc3nc(NC(=O)C4COc5ccccc5O4)sc3c2s1 (stereo unspecified)	2.1%
COc1ccc2oc(=O)c(C(=O)Nc3cccc(-c4cn5cccc(C)c5n4)c3)cc2c1	3.2%
CCCc1cc(=O)[nH]c2nnc(SCC(=O)Nc3nc4ccc(C)cc4s3)n12	13.0%
O=C(CSc1nnc2ccc(-c3cccs3)nn12)c1cccs1	-4.0%
Following part:
SMILES	Mtb growth
CC1(C)COc2ccc(NC(=O)C3CCCC3)cc2NC1=O	0.6%
COc1ccc(Cl)cc1C(=O)Nc1nnc(-c2cccc([N+](=O)[O-])c2)s1	8.1%
CCOC(=O)c1oc2ccccc2c1NC(=O)c1ccc(C)c([N+](=O)[O-])c1	9.3%
Cc1cc(NC(=O)COc2ccccc2)nc2c1c(=O)oc1ccccc12	-2.4%
CC(C)(C)c1ccc(C(=O)Nc2cccc(-c3ccc4nncn4n3)c2)cc1	35.2%
CCCCCn1c(SCCOCC)nc2c1c(=O)[nH]c(=O)n2C	23.2%
CSc1cccc2sc(Nc3ccc(Cl)cc3)nc12	2.31µg/mL*
CCOC(=O)c1ccc2nc(Nc3nc4cc5c(cc4s3)OCO5)sc2c1	34.8µg/mL*
Cc1ccc2nc(NCC(=O)O)nc(-c3ccccc3)c2c1	-1.1%
Cc1nnc(NC(=O)CN2C(=O)c3ccccc3S2(=O)=O)s1	-1.6%
Cc1ccc(Nc2nc(N3CCN(c4ccc(F)cc4)CC3)nc3nccnc23)c(C)c1	9.1%
COc1ccc(S(=O)(=O)N(C(C)=O)c2ccc3oc(C)c(C(C)=O)c3c2)cc1	0.3%
O=C(Nc1c(C(=O)Nc2cccc(Cl)c2)oc2ccccc12)c1ccc2c(c1)OCO2	4.0%
COc1ccc(OC)c(-c2nc(C(N)=O)c3[nH]c(=O)n(-c4ccc(C(C)(C)C)cc4)c3n2)c1	-5.8%
O=C1CC(Sc2ncccc2C(=O)O)C(=O)N1 (stereo unspecified)	-5.2%
Cn1cccc1Cc1nnc(SCC(=O)Nc2cccc([N+](=O)[O-])c2)n1C	-6.3%
COc1ccc(CC(=O)Nc2cc3c4c(c2)C(C)C(=O)N4CCC3)cc1 (stereo unspecified)	1.6%
NC(=O)C1CCN(c2nc3c(S(=O)(=O)c4cccc(Cl)c4)nnn3c3ccsc23)CC1	-2.0%

Compound activity as filed in PubChem BioAssay.
